# Mtb hypoxia inh = PubChem AID 1159583. fluorescence inhibition, % (test concentration not listed). 300,000 compounds, 0.1% hits. M. tuberculosis hypoxia-regulated fluorescent reporter, fluorescence;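 active means 35 to 45% if threefold the growth effect, above 45% if 1.5-fold the growth effect; inactive means the rest, general growth blockers included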;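 further: wells of about 50 µL received 100 nL stock; 0% = vehicle wells and 100% = reference inhibitor wells; whole bacteria with a GFP reporter of the hypoxia response; strong numbers were not always called active; many hits fall short of the cut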
# Bead autofluor = flagged as autofluorescent in microsphere protease counterscreen; compound autofluorescence counterscreen, microsphere flow cytometry; active compounds read high; fluorescence intensity (no concentration beside the values); 360,000 compounds, 3.1% hits; AID 624483;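 active means at least 3 SD above the mean of all compounds, about 16000 in these data; inconclusive means too few beads counted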;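 further: 100 nL of 1 mM stock went into each well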
# ugtP null kill = growth inhibition of ugtP-null S. aureus, primary screen, RN4220 ugtP deletion, OD600 | 16 h; some inactives read as strong as hits | growth inhibition, % (no concentration beside the values) | 330,000 compounds, 0.54% hits | AID 1259309, 2017;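 active means z-score under -3 and OD600 up to 0.15 on both plates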;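 further: plate controls were untreated wells for no effect and antibiotic for full effect; wells of about 80 µL received 100 nL stock; the first replicate is given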
# RN4220 kill = growth inhibition of S. aureus RN4220, primary screen, OD600 | 16 h | inhibition, % (test concentration not listed) | 330,000 compounds, 0.33% hits;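 active means z-score of -3 or lower and OD600 up to 0.18 on both plates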;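 further: plate controls were untreated cells for no effect and reference antibiotic for full effect; stock transfer was 100 nL into about 80 µL; one replicate is shown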
# PrP 5UTR inh = inhibition of PrP 5' UTR reporter expression | inhibition, % (test concentration not listed) | 340,000 compounds, 0.35% hits | AID 488862, 2010 | cell-based PrP 5' UTR mRNA reporter, plate reader;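 active means every replicate at 50% or more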;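 further: 0 = median of the neutral control wells; tested in H4 reporter cells; numbers are from one replicate; inactives centre near -14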
# BJeLR lethal = MLPCN primary cell-based screen for lethality selective to Ras in HRASV12 cells; BJeLR (HRASV12) viability, CellTiter-Glo ATP luminescence, 48 h; reference of the scale not given here; inhibition, % (test concentration not listed); 300,000 compounds, 0.17% hits;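 active means replicate mean above 50%; inconclusive means above 50% but judged a plate artefact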;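 further: 50 nL library stock added to about 25 µL; numbers are from one replicate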
# Mtb hypoxia inh growth = second read-out of Mtb hypoxia inh, no call of its own (marks repeat the call); growth inhibition, %; measured here: M. tuberculosis growth (absorbance);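 0% = vehicle and 100% = reference antibiotic; read after six days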
# Numbers without * were called inactive; ? = inconclusive; nt = no result given.
# Values run as follows: Mtb hypoxia inh	Mtb hypoxia inh growth	Bead autofluor	ugtP null kill	RN4220 kill	PrP 5UTR inh	BJeLR lethal
1) CCOC(=O)C1CCN(C(=O)CCN2C(=O)C3C4C=CC(C4)C3C2=O)CC1 (centres undefined)
 : 4	-3	3054	10	2.5	-5	11
2) CCCCOC(=O)Nc1ccc(OC)cc1S(=O)(=O)N1CCOCC1
 : -2	1	2835	-3	4.6	-20	1
3) COc1ccc(Nc2nc(-c3ccccc3)nc3ccccc23)c(OC)c1
 : 6	6	3686	15	1.7	11	-5
4) Clc1ccc(C[n+]2cc(-c3ccccc3)n3c2CCCCC3)c(Cl)c1
 : 12	24	4453	-6	6.0	-23	15
5) O=C(COn1nnc2ccc(C(F)(F)F)cc21)Nc1c(Cl)cccc1Cl
 : -1	2	2413	-2	6.1	-6	-7
6) Cn1cc(C(=O)NC2CCCCCC2)c(=O)c2cc(S(=O)(=O)N3CCCC3)ccc21
 : 9	3	2546	-8	3.2	-17	21
7) CC1Cc2ccccc2N1S(=O)(=O)c1cnc(Cl)c(Br)c1 (centres undefined)
 : 5	11	4771	15	-0.7	-19	0
8) CC1CCN(Cc2c(C(=O)N/N=C/c3ccccc3O)nnn2-c2nonc2N)CC1
 : nt	nt	6258	nt	nt	39	6
9) CN1CCN(Cc2ccc3ccccc3c2)CC1
 : 2	-2	3478	14	4.1	-11	-3
10) CCOC(=O)c1c(NC(=O)COC(=O)CCOc2ccc(OCC)cc2)sc(C(=O)N(C)C)c1C
 : 10	-2	?	8	3.3	-13	1
11) COc1ccccc1-c1nnc(NC(=O)CSc2nncn2C)s1
 : nt	nt	2724	2	0.9	2	-2
12) O=C(NCc1ccc2c(c1)OCO2)c1ccc(S(=O)(=O)NCC2CCCO2)cc1 (centres undefined)
 : nt	nt	4244	4	-1.2	-13	10
13) CCS(=O)(=O)NCCc1ccc(OC)c(OC)c1
 : 10	10	8340	-1	3.8	-5	-10
14) COc1ccccc1N1CC(C(=O)OC(C)C(=O)N2CCCc3ccccc32)CC1=O (centres undefined)
 : nt	nt	4121	2	3.2	-6	7
15) COc1cc(C=O)ccc1OCCCOc1ccc([N+](=O)[O-])cc1
 : 6	3	2618	12	13	-9	2
16) CN(C)C(CNC(=O)c1cccc(S(=O)(=O)N(C)C)c1)c1ccccc1 (centres undefined)
 : nt	nt	3287	4	-2.1	-36	5
17) Cc1oc(-c2ccccc2)[n+]([O-])c1C
 : nt	nt	3183	9	-0.4	-26	0
18) O=C(N/N=C/c1ccc(Br)o1)/C(=C/c1ccc([N+](=O)[O-])cc1)NC(=O)c1ccccc1
 : nt	nt	9494	nt	nt	-29	5
19) CCC(=O)N1CCN(c2ccccc2NC(=O)Cc2ccc(Cl)cc2)CC1
 : -7	-8	6340	5	1.6	-17	-3
20) O=C(COC(=O)CCC(=O)c1cccs1)Nc1ccc(Cl)cn1
 : -8	-27	2086	3	3.6	-19	5

# 5 structures from above, sorted by heavy-atom count, lowest first:
# Values run as follows: Mtb hypoxia inh	Mtb hypoxia inh growth	Bead autofluor	ugtP null kill	RN4220 kill	PrP 5UTR inh	BJeLR lethal
17) Cc1oc(-c2ccccc2)[n+]([O-])c1C
 : nt	nt	3183	9	-0.4	-26	0
7) CC1Cc2ccccc2N1S(=O)(=O)c1cnc(Cl)c(Br)c1 (centres undefined)
 : 5	11	4771	15	-0.7	-19	0
20) O=C(COC(=O)CCC(=O)c1cccs1)Nc1ccc(Cl)cn1
 : -8	-27	2086	3	3.6	-19	5
5) O=C(COn1nnc2ccc(C(F)(F)F)cc21)Nc1c(Cl)cccc1Cl
 : -1	2	2413	-2	6.1	-6	-7
8) CC1CCN(Cc2c(C(=O)N/N=C/c3ccccc3O)nnn2-c2nonc2N)CC1
 : nt	nt	6258	nt	nt	39	6

# Looked up above:
# For BJeLR lethal, `O=C(N/N=C/c1ccc(Br)o1)/C(=C/c1ccc([N+](=O)[O-])cc1)NC(=O)c1ccccc1` reads 5
# For BJeLR lethal, `O=C(COC(=O)CCC(=O)c1cccs1)Nc1ccc(Cl)cn1` reads 5
# For Bead autofluor, `O=C(NCc1ccc2c(c1)OCO2)c1ccc(S(=O)(=O)NCC2CCCO2)cc1` (centres undefined) reads 4244

# Continued.
# Values run as follows: Mtb hypoxia inh	Mtb hypoxia inh growth	Bead autofluor	ugtP null kill	RN4220 kill	PrP 5UTR inh	BJeLR lethal
21) Fc1ccc(Nc2ccnc(Nc3ccc(F)cc3)n2)cc1
 : -12	-7	2166	-53	-18	-66	-5
22) CC(C)Cc1n[nH]c(=O)c2c1nnn2Cc1ccccc1F
 : 15	4	3869	7	1.4	-24	3
23) O=C(CSc1nncc2ccccc12)Nc1cccc(C(=O)O)c1
 : 11	18	4540	0	2.4	-12	-6
24) NCCCC[C@H]1CNC(=S)N1CC1CCCCC1
 : nt	nt	4174	nt	nt	-22	-8
25) Cc1cc(=O)n2nc(N3CCC(C(=O)NCCc4ccc(Cl)cc4)CC3)sc2n1
 : 3	7	6133	8	6.8	-2	-8
26) O=C(Nc1ccc(Cl)c(Cl)c1)c1ccccc1
 : nt	nt	4038	-3	2.3	-34	nt
27) COC(=O)NC1(C(F)(F)F)C(=O)Nc2c1c(=O)n(C)c(=O)n2C (centres undefined)
 : 11	4	3992	3	4.0	-13	-15
28) CN1C(=O)C(Cc2nc3ccccc3c(=O)n2-c2ccccc2)c2ccccc21 (centres undefined)
 : -7	-5	19805*	-4	1.0	-14	-3
29) NS(=O)(=O)c1ccc(NC(=O)COC(=O)c2ccc(Cl)cc2[N+](=O)[O-])cc1
 : 6	9	3798	6	7.8	-12	0
30) O=C(CN1CCCCCC1)Nc1cccc(Br)c1
 : 11	14	20288*	-8	-1.9	-17	3
31) O=C(CCNS(=O)(=O)c1c(Cl)cccc1Cl)OCC(=O)c1ccccc1F
 : 9	1	2012	6	3.5	-12	8
32) C/C=C/C(=O)OCC(=O)Nc1ccc(F)cc1Cl
 : nt	nt	3504	10	-0.2	-19	12
33) O=C(NC1CCCC1)C(c1ccsc1)N(CCc1ccccc1)C(=O)Cc1cccs1 (centres undefined)
 : 0	-1	2268	12	3.5	-14	-1
34) CCN(CC(=O)Nc1c(F)cccc1F)C(=O)COc1ccc2c(c1)CCC2
 : 10	-5	?	3	3.4	-8	-14
35) CC(=O)c1ccc(Sc2ccccn2)c([N+](=O)[O-])c1
 : 15	10	3952	5	5.4	nt	-2
36) CSc1nc(=S)n(Cc2ccccc2)c(C)c1C(C)=O
 : 9	11	10946	8	2.2	-9	3
37) CCS(=O)(=O)N1CCC(C(=O)NCc2ccccn2)CC1
 : 10	3	10380	7	3.0	-13	-3
38) O=C1OCC/C1=C\c1ccccc1
 : 3	12	2582	11	8.8	-17	3
39) CC(C)(C)C1CCC(=NNC(=O)C(=O)NCc2cccnc2)CC1 (centres undefined)
 : 5	-3	4702	-1	-4.4	9	-7
40) Cc1nnc(N2C(=O)C(=O)/C(=C(/O)c3ccc4c(c3)OCCO4)C2c2ccc(F)cc2)s1 (centres undefined)
 : 1	12	4294	1	1.1	-12	-8

# Values run as follows: Mtb hypoxia inh	Mtb hypoxia inh growth	Bead autofluor	ugtP null kill	RN4220 kill	PrP 5UTR inh	BJeLR lethal
41) Cc1ccc(OC(=O)c2cccc([N+](=O)[O-])c2)c(-n2nc3ccccc3n2)c1
 : -1	5	2001	-10	7.5	-106	10
42) COc1ccc(CC2CN3C(=NCC3C(C)C)N2CCNC(=O)CCC2CCCCC2)cc1 (centres undefined)
 : -8	11	nt	-6	2.5	nt	nt
43) CCCCN=C1C([N+](=O)[O-])=CC=C2C1=NC1(CCCCC1)N2O
 : 6	17	1970	-2	2.1	-9	-3
44) CCOC(=O)C1CCCN(c2c(N3CCC(N4CCCCC4)CC3)c(=O)c2=O)C1 (centres undefined)
 : -4	-3	4558	-9	7.3	1	-1
45) CCOc1c(Cl)cc(CNCC(C)C)cc1Cl
 : 5	10	?	-1	1.2	8	11
46) O=C(O)CC1=C(Nc2ccccc2)C(=O)N(c2ccccc2)C1c1ccc(Br)cc1 (centres undefined)
 : 4	4	4412	27	13	-30	3
47) O=C(CNC(=O)Cc1ccc(Cl)cc1)NCc1ccco1
 : 16	9	4125	1	-5.1	-42	nt
48) CC(=O)Nc1cc(-n2cnnn2)ccc1C
 : 1	3	3822	-4	3.5	-17	6
49) CC1CC(=S)Nc2ccccc2S1 (centres undefined)
 : -1	4	6309	10	9.7	-9	-2
50) Cc1ccc(-c2ccc(SCC(=O)Nc3nonc3C)nn2)cc1
 : 9	9	10924	6	-1.0	-39	-2
51) COc1ccc(-n2c(SCC(=O)NCCC(C)C)nc3ccsc3c2=O)cc1
 : -3	8	21316*	-3	2.9	-29	-7
52) C/C(=N\NC(=O)CSc1nc(C)cc(C)n1)c1cccc([N+](=O)[O-])c1
 : nt	nt	2340	nt	nt	-8	-3
53) CCn1c(CCNC(=O)c2ccc(OC)cc2)nnc1SCc1ccc(Cl)cc1Cl
 : 0	-1	10101	-5	-4.4	-9	-1
54) C=CCOC(=O)C1=CC(c2coc3ccccc3c2=O)CC(OCCCCO)O1 (centres undefined)
 : 3	-2	nt	7	4.3	nt	nt
55) O=C(Cc1ncc(C(F)(F)F)cc1Cl)NCCc1ccccc1
 : 13	5	4621	1	9.4	-26	10
56) COc1ccc2c(c1)NC(=O)CC(c1ccccc1)=N2
 : 8	7	23168*	-1	2.4	-16	-9
57) O=C(CSc1ccc2nnc(-c3ccncc3)n2n1)Nc1ccc2c(c1)OCO2
 : -6	4	5051	-22	0.2	-27	-2
58) Cc1cc(C)c2c(c1)-c1cc(C)nn1C(c1ccc3c(c1)OCO3)N2 (centres undefined)
 : 5	19	24496*	54	11	-8	0
59) CC(C)=CCN1CCN(Cc2cccnc2)CC1CCO (centres undefined)
 : 10	-7	2204	1	1.5	-42	-8
60) Cc1cc(C)n2nc(C(=O)NC3CCCc4ccccc43)nc2n1 (centres undefined)
 : 10	-5	3289	6	-4.7	-15	-12

# Next part, overlapping the part above by 2 compounds.
# Values run as follows: Mtb hypoxia inh	Mtb hypoxia inh growth	Bead autofluor	ugtP null kill	RN4220 kill	PrP 5UTR inh	BJeLR lethal
59) CC(C)=CCN1CCN(Cc2cccnc2)CC1CCO (centres undefined)
 : 10	-7	2204	1	1.5	-42	-8
60) Cc1cc(C)n2nc(C(=O)NC3CCCc4ccccc43)nc2n1 (centres undefined)
 : 10	-5	3289	6	-4.7	-15	-12
61) CCOc1cc(CC(=O)N[C@@H](CC(C)C)c2ccccc2N2CCCCC2)ccc1C(=O)O
 : nt	nt	5430	nt	nt	-41	2
62) COC(=O)c1cccc(C23CC4(C2)[C@H](CN(Cc2ccc(-c5ccccc5)cc2)[C@@H]4c2ccccc2)C3c2ccc(Cl)nc2)c1 (some centres undefined)
 : nt	nt	3649	nt	nt	-20	14
63) C=CCC(=O)N1CCCC(C(=O)c2ccc(Cl)cc2)C1 (centres undefined)
 : 20	19	3194	6	-1.2	-20	15
64) Cc1ccc(Nc2cc(C)nc3ncnn23)c(Cl)c1
 : nt	nt	4410	1	9.3	-5	2
65) COC(=O)c1cc(C)sc1NC(=O)c1ccco1
 : 0	-5	4324	1	1.5	-20	-11
66) COc1cccc(-n2c(=O)c3ccccc3n(CC(=O)NCC3CCCO3)c2=O)c1 (centres undefined)
 : 14	2	3631	11	3.5	-10	5
67) CCN1C(=O)C2C(c3ccc(-c4ccc5c(c4)OCO5)c(OC)c3)N[C@@](CC(C)C)(C(=O)OC)C2C1=O (some centres undefined)
 : 7	8	nt	7	4.0	nt	nt
68) O=C(COc1ccccc1Cl)Nc1ccc(CN2CCOCC2)cc1
 : -1	-4	4399	13	5.0	-26	1
69) CC(C)c1ccc(C(=O)NC(=S)NCc2cccnc2)cc1
 : 22	7	2576	-22	-5.2	-13	-3
70) O=C(CCC(=O)Nc1ccc(F)cc1)NN=Cc1ccccc1
 : 13	0	nt	-1	5.8	nt	nt
71) CCOC(=O)c1cnc(SCC(=O)N2CCOCC2)nc1N
 : -1	0	2945	4	4.4	-23	8
72) O=C1c2ccccc2C(=O)N1CCCc1nc(-c2ccccc2)no1
 : 7	5	21179*	5	7.8	-21	4
73) Cc1nc2cc(-c3ccccc3)sc2c(=O)n1N
 : 9	1	3232	1	5.8	81*	79*
74) COc1ccc(C(C)=O)cc1COC(=O)c1cccnc1Cl
 : 8	-1	3211	13	2.9	-26	-1
